Sa helicase inh = inhibitors of S. aureus replicative helicase, primary screen, biochemical, fluorescence unwinding readout; replicative DNA helicase (DnaC/DnaB), Staphylococcus aureus; purified S. aureus helicase, fluorescence unwinding assay; about half of the hits fall short of the stated cut; inhibition, %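 (tested at about 80 µM)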; 0.05% of 120,000 active; AID 485395, 2010;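 active means both duplicates at 50% or more, or one of them with a favoured structure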;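 further: 0% = mean of negative control wells and 100% = mean of positive control wells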
MgrA-DNA mod = S. aureus MgrA activity modulators, primary screen, biochemical, S. aureus Newman, fluorescence polarization | MgrA-DNA binding | 0.13% of 84,000 active | AID 602314, 2012 | inhibition, %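 (about 10 µg/mL by stock and volumes)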;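 active means above 50% in either of two replicates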;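 further: 0% = protein plus DNA without compound and 100% = DNA alone without protein; higher means less MgrA bound to DNA so lower polarization; one replicate is shown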
* = called active by the depositor; . = not tested or not shown; & = joins results of further samples.

A first look:
Each structure is followed by: Sa helicase inh | MgrA-DNA mod
> CCN(CC)c1c(S(=O)(=O)c2ccccc2)cnc2cc3c(cc12)OCCO3
    20 | .
> COC(=O)CC(C#N)(c1ccccc1)c1cccc(F)c1C#N (configuration not stated)
    . | -1.9
> CCN(CC)S(=O)(=O)c1cccc(C(=O)OCc2nnc(-c3ccccc3)o2)c1
    -3 | .

The list itself, from the start:
Each structure is followed by: Sa helicase inh | MgrA-DNA mod
> CCN(CC)c1c(S(=O)(=O)c2ccccc2)cnc2cc3c(cc12)OCCO3
    20 | .
> COC(=O)CC(C#N)(c1ccccc1)c1cccc(F)c1C#N (configuration not stated)
    . | -1.9
> CCN(CC)S(=O)(=O)c1cccc(C(=O)OCc2nnc(-c3ccccc3)o2)c1
    -3 | .
> CCOC(=O)c1cc(C)n(-c2ccc(I)cc2)c1C
    -10 | .
> CNS(=O)(=O)c1cc(C)ccc1OC
    15 | 4.3
> CC(=O)Nc1ccc(N=Cc2ccc(OC(=O)c3cccnc3)cc2)cc1
    -2 | .
> CCCCOc1cc(C(=O)NCCN(CC)CC)c2ccccc2n1
    . | -0.6&1.2
> CC1=CC(C)(C)NC(=O)N1c1cccc(F)c1
    -12 | .
> C=C(C)CN1CCN(C(c2ccccc2)c2ccccc2)CC1
    23 | .
> Cc1ccc2occ(CC(=O)Nc3nnc(C)s3)c2c1
    -10 | .
> CC(C)C(=O)Nc1nc(-c2ccc(Br)s2)cs1
    -9 | .
> COc1cccc(CNc2ccc(-c3nc4ncccc4o3)cc2)c1OC
    11 | -6.7
> NNC(=O)c1ccc(Oc2ccc(Cl)cc2)nc1
    11 | .
> O=C(O)CCSc1ccccc1
    . | 4.1
> CCOC(=O)c1[nH]ncc1-c1ccc(Cl)cc1Cl
    . | 2.9
> CC(C)CNCCCN1CCOCC1
    1 | 2.4
> CCOC(=O)c1sc(NCc2ccco2)c(-c2nc3ccccc3s2)c1N
    -7 | .
> COC(=O)c1ccccc1NC(=O)Nc1ccc(C(=O)N2CCCC2)cc1
    7 | -1.8
> CSCCC(C(=O)O)N1C(=O)/C(=C/c2ccc(C)cc2)SC1=S (configuration not stated)
    13 | .
> CCCCC/C=C\C/C=C\CC1OC1C/C=C\CCCC(=O)O (configuration not stated)
    . | 0.1

More structures follow:
Each structure is followed by: Sa helicase inh | MgrA-DNA mod
> Cc1cc(C)n2c(Br)c(CN3CCC4(CC3)OCCO4)nc2n1
    17 | .
> CCOC(=O)N1CCN(S(=O)(=O)c2ccccc2)CC1
    5 | .
> CCOC(=O)c1oc2ccccc2c1COC(=O)/C=C/c1cccs1
    -10 | .
> COc1ccc(CCN2CC(C(=O)N(C)C)CC2=O)cc1OC (configuration not stated)
    -4 | .
> OCCN1CCN(c2cc(C(F)(F)F)nc3c(F)cccc23)CC1
    . | -2.1
> CC[n+]1oc(C)c2ccccc21
    3 | -0.5
> CCOc1ccc2sc(NC(=O)NC(C)N3C(=O)C4C5C=CC(C5)C4C3=O)nc2c1 (configuration not stated)
    13 | .
> NN1C(=O)/C(=C\c2ccccc2)SC1=S
    15 | 1.1
> Cc1nnc(C(=O)c2ccccc2)o1
    10 | -3.0
> CC1(C)CC(=O)C=C(Nc2sc3c(c2C(N)=O)CCCC3)C1
    14 | -2.7
> COc1ccc(-c2csc3nccn23)cc1
    18 | .
> CCCC1=NN(c2ccccc2)C(=O)/C1=C/c1ccc2c(c1)OCO2
    0 | 2.8
> Cc1noc(C)c1C(=O)Nc1ccc(S(=O)(=O)N2CCCCC2)cc1
    -5 | .
> Cc1ccc(S(=O)(=O)N=S(C)(=O)c2ccc(C(F)(F)F)cn2)cc1 (configuration not stated)
    . | -1.9
> CC(C)C(=O)Nc1nnc(-c2ccccc2)o1
    -6 | .
> Nc1cc(Cl)c(-n2cccc2)cc1Cl
    . | -0.6
> COC(=O)CC1CC(C)(C)NC(C)(C)C1
    -7 | -2.5
> N#C/C(=C\c1cn(CCOc2ccccc2F)c2ccccc12)C(=O)NC1CC1
    4 | -0.3
> COc1ccc(Cl)cc1NC(=S)N1CCCCC1CO (configuration not stated)
    21 | 1.0
> Oc1ccc(Cl)cc1C=Nc1ccc2cn[nH]c2c1
    . | -0.7

(further entries)
Each structure is followed by: Sa helicase inh | MgrA-DNA mod
> O=C(O)/C=C/C(=O)N1CCCCC1
    -12 | .
> COC(=O)c1cc(OC)c(OC)cc1NS(=O)(=O)c1c(Cl)cc(Cl)cc1Cl
    . | -0.1
> COC(=O)C1=CN(Cc2ccc(OC)cc2)C=C(C(=O)OC)C1c1ccc(OC)cc1
    6 | -0.9
> Oc1ccccc1OCc1ccc2ccccc2n1
    23 | .
> COc1cccc(NC(=O)C(C#N)Cc2cccs2)c1 (configuration not stated)
    19 | 4.0
> CC(=O)N(C)c1ccc(C(O)(C(F)(F)F)C(F)(F)F)cc1
    9 | 0.8
> Cc1ccc(CN2CCc3nc(SCC(=O)NCCc4ccccc4)[nH]c(=O)c3C2)cc1
    -26 | .
> O=C[C@@H]1CCCN1C(=O)[C@@H]1CCCN1C(=O)OCc1ccccc1
    . | -0.9
> O=C(O)C1(c2ccccc2)CCN(S(=O)(=O)c2ccccc2)CC1
    -8 | .
> COC(=O)C1=C(C)N=c2s/c(=C\c3ccc(OC(C)=O)cc3OC(C)=O)c(=O)n2C1c1ccccc1 (configuration not stated)
    . | 0.1
> COC(=O)c1cc(OC)c(OC)cc1NC(=S)N1CCN(c2ccccn2)CC1
    3 | 1.1
> O=c1[nH]ncc2c3ccccc3n(Cc3ccc(F)cc3)c12
    14 | 1.0
> CN(C(=O)C(NS(=O)(=O)c1ccc2c(c1)CCC(=O)N2)c1ccccc1)C1CCCCC1 (configuration not stated)
    0 | .
> CCOC(=O)CCN1C(=O)c2ccccc2Sc2ncccc21
    9 | .
> O=C(C1CCCN1S(=O)(=O)c1ccc2nc(-c3ccccc3)[nH]c2c1)N1CCOCC1 (configuration not stated)
    10 | 2.8
> CN(CC(=O)Nc1ccc(Cl)cc1)C1CCCCC1
    0 | 1.9
> COc1ccc(N(CC(=O)N2CCN(c3ccccc3F)CC2)S(=O)(=O)c2c(C)nn(C)c2C)cc1
    -19 | .
> CCSCC(=O)Nc1ccc(F)cc1
    11 | 5.5
> CO[C@H]1CC(O[C@@H]2/C(C)=C/C[C@@H]3C[C@@H](C[C@]4(CC[C@H](C)[C@@H](C5CCCCC5)O4)O3)OC(=O)[C@@H]3C=C(C)/C(=N/O)[C@H]4OC/C(=C\C=C\[C@@H]2C)[C@]43O)O[C@@H](C)C1O (some centres not stated)
    . | 0.0
> Cc1ccccc1Cn1c(=O)n(CCC(C)C)c(=O)c2cccnc21
    -19 | .

Shown as labelled records: part of the list above.
CN(C(=O)C(NS(=O)(=O)c1ccc2c(c1)CCC(=O)N2)c1ccccc1)C1CCCCC1 (configuration not stated)
  Sa helicase inh = 0 | MgrA-DNA mod = .
CCOC(=O)CCN1C(=O)c2ccccc2Sc2ncccc21
  Sa helicase inh = 9 | MgrA-DNA mod = .
O=C(C1CCCN1S(=O)(=O)c1ccc2nc(-c3ccccc3)[nH]c2c1)N1CCOCC1 (configuration not stated)
  Sa helicase inh = 10 | MgrA-DNA mod = 2.8
CN(CC(=O)Nc1ccc(Cl)cc1)C1CCCCC1
  Sa helicase inh = 0 | MgrA-DNA mod = 1.9

Next part.
Each structure is followed by: Sa helicase inh | MgrA-DNA mod
> CC1(C)NC(=O)N(CC(O)Cn2c3ccccc3c3ccccc32)C1=O (configuration not stated)
    0 | 1.6
> O=C(CSc1ncnc2sccc12)NC(=O)CN1CCCC1=O
    5 | .
> COC(=O)c1sccc1-c1ccc(CN2CCCc3cc(OC)ccc32)o1
    . | 4.9
> O=C1Nc2ccccc2S/C1=C\C(=O)N1CCN(c2ccccc2)CC1
    3 | 0.0
> N#Cc1c(SCC(=O)N2CCCCC2)nsc1SCC(=O)N1CCCCC1
    7 | -1.4
> CCCCCc1c(C)c(C#N)c2nc3ccccc3n2c1-n1ccnc1
    -21 | .
> O=C(Nc1ccc(N2CCOCC2)cc1)c1ncn[nH]1
    8 | -0.2
> COc1cc(C)c(C(C)C)cc1S(=O)(=O)NCCCn1ccnc1
    -16 | .
> COCC(C)NC(=O)c1ccccc1OC(C)=O (configuration not stated)
    16 | 3.9
> CC1CCCN(S(=O)(=O)c2cc(Cl)ccc2Cl)C1 (configuration not stated)
    . | 2.2
> CC(C)=CC(=O)Oc1ccc(Br)cc1
    17 | 4.8
> CC1CCCC(C)N1C(=O)c1cc(-c2ccc(Cl)cc2)on1 (configuration not stated)
    8 | 0.1
> O=C(CCCCC(=O)NCC(=O)ON1C(=O)CCC1=O)NCC(=O)ON1C(=O)CCC1=O
    . | -1.5
> CCCN1C2CCCC1CC(NC(=O)c1ccccc1C)C2 (configuration not stated)
    8 | -1.7
> Cc1cc2nc3c(=O)[nH]c(=O)nc-3n(CC(O)C(O)C(O)CO)c2cc1C (configuration not stated)
    . | 14&15&30
> CCOC(=O)Cc1csc(-c2ccc(F)cc2F)n1
    . | -0.7
> COc1ccc2[nH]c3c(=O)[nH]cnc3c2c1
    15 | -1.3
> CSCCn1c(-c2ccccc2)cc(C(=O)NCc2ccco2)c1C
    . | -0.7
> Cc1cc(C(F)(F)F)nc(SCCNC(=O)Cc2ccc(F)cc2)n1
    -6 | 0.7
> O=C(CC(c1ccccc1)c1ccccc1)NCCN1CCOCC1
    15 | -2.7

Further records follow.
Each structure is followed by: Sa helicase inh | MgrA-DNA mod
> COc1cc2c(c(OC)c1OC)-c1ccc(O)c(=O)cc1[C@@H](NC(=O)C(F)(F)F)CC2
    5 | -2.1
> Cc1cc(C)n2ncc(C(=O)Nc3cccc(C(F)(F)F)c3)c2n1
    -3 | -5.8
> CC(=O)NC(C(=O)NNc1c(Cl)cc(Cl)cc1Cl)C(C)C (configuration not stated)
    9 | .
> COc1ccc(N2CCC(CNC(=O)Nc3ccccc3)C2)cc1 (configuration not stated)
    3 | 1.1
> Cc1nnc(NC(=O)CSc2ncccn2)s1
    12 | -3.5
> COc1ccc2c(C)nc(Nc3nc(-c4ccccc4)cc(=O)[nH]3)nc2c1
    . | -2.0
> CC(=O)Nc1c(C)sc(C)c1C(=O)O
    36 | .
> CCN1CCCc2cc(CN(CCN3CCOCC3)C(=S)Nc3c(C)cc(C)cc3C)ccc21
    7 | 5.0
> CCOC(=O)C1CCN(C(=O)C2CCCCC2)CC1
    5 | 0.0
> Cn1c(-c2ccccc2)c(C(=O)CC#N)c2ccccc21
    -15 | -0.6
> N#CCCC1CCCC/C1=N\Nc1ccc([N+](=O)[O-])cc1[N+](=O)[O-] (configuration not stated)
    . | -0.9
> COc1ccc(N(C)C(=O)C2CCN(S(=O)(=O)c3cccc4nsnc34)CC2)cc1
    4 | -0.9
> Cc1ccc(SCc2cc(=O)n3[nH]cnc3n2)cc1
    14 | .
> CCOC(=O)C1CCCN(Cc2nc(N)nc(Nc3ccc(Cl)cc3)n2)C1 (configuration not stated)
    11 | 2.5
> Nc1ncnc2c1c1nc3ccccc3nc1n2Cc1ccccc1
    6 | .
> Cc1occc1C(=O)N/N=C/C1CCCCC1
    27 | 6.0
> CSc1ccc(CCNC(=O)c2oc3cc4sc(N(C)C)nc4cc3c2C)cc1
    1 | 0.1
> COc1ccc(S(=O)(=O)N2CCC(n3c(=O)[nH]c4ccccc43)CC2)cc1
    2 | 0.8
> O=C(NCc1ccco1)c1cc(-c2ccc(Cl)cc2)oc1C(F)(F)F
    . | 1.0
> Cc1nn(CCC(=O)NC2CCCC2)c(=O)c2nn(-c3ccccc3)c(C)c12
    -12 | .

Continued:
Each structure is followed by: Sa helicase inh | MgrA-DNA mod
> O=C1c2ccccc2C(=O)c2c1ccc(O)c2O
    . | -0.8
> O=C(CO)Nc1c(-c2ccccc2)c2cc(Br)ccc2[nH]c1=O
    -17 | .
> CCOC(=O)c1cc2c(s1)-c1c(C)cccc1OC2
    23 | .
> Nc1nc(-c2ccncc2)nc2c1cnn2-c1ccccc1
    . | -1.0
> CCOC(=O)C(Sc1nncn1-c1ccccc1C)c1ccccc1 (configuration not stated)
    12 | .
> CC1=C(C(=O)OC2CC(C)CCC2C(C)C)C(c2ccc(Br)cc2)n2nnnc2N1 (configuration not stated)
    9 | 1.5
> CNC(=O)/C(C#N)=C/c1cn(CCOc2ccccc2)c2ccccc12
    6 | 4.8
> O=C(NC1C2CC3CC(C2)CC1C3)c1cccs1 (configuration not stated)
    10 | 1.6
> Cc1ccc(-c2cc(-c3ccccc3)nc(SCC(=O)Nc3ncccn3)c2C#N)cc1
    . | 3.7
> CC(C)(C)OC(=O)N1CCC(CNC(=O)c2ccc(F)cc2)CC1
    . | -3.0
> Cn1c2c(c(=O)n(C)c1=O)CN(CC1CC1)CN2
    . | -1.0
> CCC(CC)NC(=O)COc1nc2ccccc2nc1C
    4 | .
> CS(=O)(=O)c1ccc(Cl)c(NC(=O)CN2CCc3sccc3C2c2cccs2)c1 (configuration not stated)
    -9 | .
> COc1cc(C(F)(F)F)c(C(=O)N(C)Cc2cc(Cl)cc(Cl)c2)cn1
    . | 0.0
> CCC(=O)Nc1ccc2c(c1)ncn2-c1ccccc1
    19 | 2.4
> CCC(=O)N(c1nnc(SCC(=O)c2c(N)n(C)c(=O)[nH]c2=O)s1)C1CC1
    -5 | .
> CCC(=O)Nc1cccc(-c2nc3ccccc3[nH]2)c1C
    0 | 0.5
> C=C1OC(=O)OC1(C)CCc1ccccc1 (configuration not stated)
    2 | .
> CCCCn1[nH]c(-c2ccccc2)cc1=O
    -6 | .
> COc1ccc(CCN2CC(C#N)=C3c4cc(OC)c(OC)cc4CCN3C2)cc1OC
    -6 | .
> COc1cccc2cc(C(=O)C3=C(O)C(=O)N(CCCN4CCOCC4)C3c3ccc(C)cc3)oc12 (configuration not stated)
    9 | 0.6
> Cc1cccc(-c2nc3scc(CCNC(=O)C(C)(C)C)n3n2)c1
    -2 | .
> CN(C)c1cccc(N(C)C)c1CNC(=O)Nc1ccc(Cl)cc1
    9 | .

These rows are one share of the data. The share of hits here may be higher or lower than overall.
